Hsc70 ATP site: Hsc70 inhibitors, probe displacement, primary screen, biochemical, fluorescence polarization (AID 568). Heat shock cognate 71 kDa protein (Homo sapiens). Hsc70 fluorescence polarization, probe displacement; higher % means a stronger effect; strong numbers were not always called active. one-dose displacement, % at 20 µM; IC50 in µM for titrated hits. 83,000 tested, under 10 active;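 active means displacement above 50% without optical interference and an IC50 on retest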;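 further: ATPase domain with a fluorescein-tagged ATP probe; 0% = vehicle and 100% = excess ADP; read after one hour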
MT1-MMP reporter: inhibitors of MT1-MMP promoter transcription, cell-based, luciferase reporter, luminescence (AID 618) | hit rate 0.62% among 87,000 | MT1-MMP promoter luciferase reporter cells, luminescence | calls from a first round at 10 µM; hits with a dose series show EC50 in µM;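 active means over half of the reporter light lost at 10 µM or EC50 under 50 µM; inactive means the rest and hits that failed the dose series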;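 further: actives suppress MT1-MMP promoter-driven transcription so potencies describe inhibitors; HT1080 fibrosarcoma cells; overnight exposure; toxic or luciferase-blocking compounds were not removed from the actives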
WNV protease inh: inhibitors of WNV NS2B-NS3 protease, primary screen, biochemical, fluorogenic substrate; Genome polyprotein (West Nile virus), P06935; fluorogenic substrate Ex360/Em465; active compounds read low; z-score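 (tested at a level between 10 and 100 µM)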; hit rate 0.18% among 65,000;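 active means z-score at -3 or under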;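 further: score is relative to mean and spread of the compound wells of a plate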
Target sequence (P06935 1371-1501 limits assumed): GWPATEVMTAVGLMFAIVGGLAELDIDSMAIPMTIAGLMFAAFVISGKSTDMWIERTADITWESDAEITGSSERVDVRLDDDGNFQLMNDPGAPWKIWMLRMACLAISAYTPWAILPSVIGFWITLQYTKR
Target sequence (P06935 1502-1679 limits assumed): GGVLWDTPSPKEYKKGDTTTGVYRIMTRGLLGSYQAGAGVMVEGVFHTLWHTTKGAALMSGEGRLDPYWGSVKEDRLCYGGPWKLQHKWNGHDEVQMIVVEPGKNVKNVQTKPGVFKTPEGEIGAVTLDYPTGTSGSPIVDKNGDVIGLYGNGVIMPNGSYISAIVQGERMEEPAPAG
The depositor's hits bear a star. Only part of the results is shown, so the mix of outcomes need not match the whole.

Screening CCn1cc(C(=O)N2CCCC2)c(=O)c2cc(S(=O)(=O)N3CCOCC3)ccc21 returned Hsc70 ATP site -2.0%, MT1-MMP reporter inactive and WNV protease inh 0.07.
`CC(C)COC(=S)Nc1ccccc1` gave Hsc70 ATP site 3.7% and MT1-MMP reporter inactive.
Screening COc1cc(NC(=O)c2ccc(Cl)cc2)c(OC)cc1Cl returned Hsc70 ATP site -0.3% and MT1-MMP reporter inactive.
Screening O=C1CC(Nc2ccc(N3CCOCC3)cc2)C(=O)N1Cc1ccccc1 (stereo not given) returned Hsc70 ATP site 2.6%, MT1-MMP reporter inactive and WNV protease inh -0.18.
`CN1CCN(c2nc(-c3ccccc3)c3cc(Cl)ccc3n2)CC1` gave Hsc70 ATP site 5.0%, MT1-MMP reporter inactive and WNV protease inh 0.42.
CC(C)c1cc(C(=O)Nc2sc3c(c2C#N)CCC3)no1 was read as Hsc70 ATP site -1.9%, MT1-MMP reporter inactive and WNV protease inh 1.2.
For CC12CN3CCN(CC(C3)C1(O)CN1CCOCC1)C2 (stereo not given) the results were Hsc70 ATP site -0.5%, MT1-MMP reporter inactive and WNV protease inh -0.31.
Cc1cccc(NC(=O)c2cc(NC(=O)c3ccco3)ccc2Cl)n1 was read as Hsc70 ATP site 10%, MT1-MMP reporter inactive and WNV protease inh 0.52.
Screening Cc1nnc(NC(=O)CSc2nnc(Cc3ccccc3)n2-c2ccccc2)s1 returned Hsc70 ATP site 2.0%, MT1-MMP reporter inactive and WNV protease inh 0.48.
`COCCn1c(SCC(=O)Nc2cc(Cl)ccc2OC)nc2c(c1=O)SC(C)C2` (stereo not given) gave Hsc70 ATP site -3.2%, MT1-MMP reporter inactive and WNV protease inh -0.48.
For CCN1CCN(S(=O)(=O)c2ccc(S(=O)(=O)N(CC)Cc3ccccc3)cc2)CC1 the results were Hsc70 ATP site 3.7%, MT1-MMP reporter inactive and WNV protease inh -0.06.
CCn1ncc(Br)c1C(=O)Nc1ccc(Cl)cn1 was read as Hsc70 ATP site -4.1%, MT1-MMP reporter inactive and WNV protease inh 0.5.
Screening CC(C)c1nnc(NC(=O)CCCC(=O)O)s1 returned Hsc70 ATP site 11%, MT1-MMP reporter inactive and WNV protease inh 0.36.
`Cc1nc(COC(=O)c2c(C)nn(-c3ccccc3)c2C)cs1` gave Hsc70 ATP site -4.5%, MT1-MMP reporter inactive and WNV protease inh -0.91.
For Cc1ccc2oc(=O)c3cc(C(=O)NCCN4CCN(C)CC4)sc3c2c1 the results were Hsc70 ATP site 1.8%, MT1-MMP reporter inactive and WNV protease inh 1.6.
Screening CC1CCN(c2nc(-c3ccc(F)cc3)cc(C(F)(F)F)n2)CC1 returned Hsc70 ATP site 5.2%, MT1-MMP reporter inactive and WNV protease inh -0.74.
For CCN1C(=O)c2cccc3c(NS(=O)(=O)c4ccc(NC(C)=O)cc4)ccc1c23 the results were Hsc70 ATP site 2.1%, MT1-MMP reporter inactive and WNV protease inh 1.1.
`CCc1ccccc1N(C(=O)CCC(=O)Nc1cc(C)on1)C(C(=O)NC1CCCC1)c1ccco1` (stereo not given) gave Hsc70 ATP site -0.2%, MT1-MMP reporter inactive and WNV protease inh 0.08.
COc1cccc(NC(=O)c2ccc(CN3CCOCC3)cc2)c1 was read as Hsc70 ATP site 4.3%, MT1-MMP reporter inactive and WNV protease inh 0.89.
Screening CCOC(=O)COc1cccc2c(=O)n(CC(=O)N3CCc4ccccc43)ccc12 returned Hsc70 ATP site 4.2%, MT1-MMP reporter inactive and WNV protease inh -1.1.
`CC(NC(=O)c1cc(-c2ccccc2)on1)c1ccccc1` (stereo not given) gave Hsc70 ATP site 3.1%, MT1-MMP reporter inactive and WNV protease inh 2.1.
Screening NC(=O)c1c(NC(=O)c2ccccc2)sc2c1CCc1ccccc1-2 returned Hsc70 ATP site 2.3% and MT1-MMP reporter inactive.
For COc1ccc(N(CC(=O)Nc2cc(Cl)ccc2OC)S(=O)(=O)c2c(C)noc2C)cc1 the results were Hsc70 ATP site -1.6%, MT1-MMP reporter inactive and WNV protease inh -0.67.
`CCOC(=O)Nc1ccc(S(=O)(=O)Nc2nccc(C)n2)cc1` gave Hsc70 ATP site -6.0%, MT1-MMP reporter inactive and WNV protease inh -0.04.
Screening CCOC(=O)C1=C(C)NC(=O)NC1c1cccc(O)c1 (stereo not given) returned Hsc70 ATP site -0.3%, MT1-MMP reporter inactive and WNV protease inh 0.14.
Cc1ccc(N(C(=O)c2cccs2)C2C=CS(=O)(=O)C2)cc1 (stereo not given) was read as Hsc70 ATP site -5.8%, MT1-MMP reporter inactive and WNV protease inh 0.09.
CCOCCCNC(=O)CS(=O)(=O)Cc1nc(-c2cccc(OC)c2)oc1C was read as Hsc70 ATP site -3.9%, MT1-MMP reporter inactive and WNV protease inh 0.15.
CCCCc1ccc(-c2ccc(C)cc2O)nc1 was read as Hsc70 ATP site -0.2%, MT1-MMP reporter inactive and WNV protease inh 0.5.
Screening COc1ccc2c(c1)[nH]c1c(=O)n(CCN3CCCC3)cnc12 returned Hsc70 ATP site 6.3%, MT1-MMP reporter inactive and WNV protease inh 0.11.
Screening Cc1ccc(S(=O)(=O)NC(=O)Nc2c(C)n(C)n(-c3ccccc3)c2=O)cc1 returned Hsc70 ATP site 4.2%, MT1-MMP reporter inactive and WNV protease inh -1.4.
For CCOC(=O)C1=C(C)NC(=O)C(C(N)=O)C1c1ccccc1 (stereo not given) the results were Hsc70 ATP site 5.2%, MT1-MMP reporter inactive and WNV protease inh -0.48.
`CC1(C)NC(=O)N(CCCOc2ccc3c(c2)CCC3)C1=O` gave Hsc70 ATP site 3.1%, MT1-MMP reporter inactive and WNV protease inh 0.01.
Screening Cc1ccc(NC(=O)N2CCC(C(N)=O)CC2)cc1 returned Hsc70 ATP site -0.3%, MT1-MMP reporter inactive and WNV protease inh -0.93.
For O=C(NCc1ccc2c(c1)OCO2)C1CCCN1C(=O)Nc1cccc(Cl)c1 (stereo not given) the results were Hsc70 ATP site 3.6%, MT1-MMP reporter inactive and WNV protease inh -0.17.
Screening CC1CCN(C(=O)CSc2nc3cccnc3n2C)CC1 returned Hsc70 ATP site -0.1%, MT1-MMP reporter inactive and WNV protease inh 2.2.
Screening CCc1nc(NCc2ccccn2)c2oc3ccccc3c2n1 returned Hsc70 ATP site -3.3%, MT1-MMP reporter inactive and WNV protease inh -0.18.
Screening COc1ccc2nc(Nc3nc(C)c(CCC(C)C)c(=O)[nH]3)nc(C)c2c1 returned Hsc70 ATP site 0.7%, MT1-MMP reporter inactive and WNV protease inh 0.79.
`COc1ccc(OC)c(NC(=O)CCN2CCCCCC2)c1` gave Hsc70 ATP site -0.5% and MT1-MMP reporter inactive.
O=C(Cn1c(-c2ccccc2)noc1=O)Nc1ccc(S(=O)(=O)N2CCOCC2)cc1 was read as Hsc70 ATP site -1.3%, MT1-MMP reporter inactive and WNV protease inh -0.46.
Screening Cc1nn2c3ccccc3n(CCN3CCCCC3)c2nc1=O returned Hsc70 ATP site 0.3% and MT1-MMP reporter inactive.
For N#Cc1nc(COc2ccccc2)oc1NCCN1CCOCC1 the results were Hsc70 ATP site 1.9%, MT1-MMP reporter inactive and WNV protease inh -0.21.
CCOC(=O)C1CCCN(c2ncnc3c2cnn3-c2ccc(OC)cc2)C1 (stereo not given) was read as Hsc70 ATP site -3.3%, MT1-MMP reporter inactive and WNV protease inh -1.1.
Screening O=C(CN(Cc1cccs1)C(=O)c1csnn1)NC1CCCC1 returned Hsc70 ATP site 0.5% and MT1-MMP reporter inactive.
Screening O=C(CN1C(=O)c2ccccc2S1(=O)=O)NC1CC2CCC1C2 (stereo not given) returned Hsc70 ATP site -0.5%, MT1-MMP reporter inactive and WNV protease inh 0.34.
For Cc1ccc(-c2nnc(Nc3ccccc3)o2)cc1 the results were Hsc70 ATP site 3.6%, MT1-MMP reporter active and WNV protease inh 0.94.
For CN(C)C(=S)NCc1ccccc1 the results were Hsc70 ATP site -2.2% and MT1-MMP reporter inactive.
COc1ccc(S(=O)(=O)Nc2ccc3c(c2)COC3=O)cc1OC was read as Hsc70 ATP site -5.3%, MT1-MMP reporter inactive and WNV protease inh 1.4.
For COc1c2ccoc2nc2c(OC)c(OCC(O)C(C)(C)O)ccc12 (stereo not given) the results were Hsc70 ATP site -4.9%, MT1-MMP reporter inactive and WNV protease inh 1.7.
Screening Cc1cc(N2CC(C(=O)NCc3cccs3)CC2=O)ccc1C(C)C (stereo not given) returned Hsc70 ATP site 3.6% and MT1-MMP reporter inactive.
CCCCNC(=O)c1ccccc1Cl was read as Hsc70 ATP site -1.2% and MT1-MMP reporter inactive.
`CCCc1nc2ccc(NC(=O)c3ccco3)cc2c(=O)n1Cc1ccccc1Cl` gave Hsc70 ATP site 3.6% and MT1-MMP reporter inactive.
Screening CCOC(=O)C1=C(C)NC(=O)NC1c1ccc(OC)c(CN2CCOCC2)c1 (stereo not given) returned Hsc70 ATP site 3.9%, MT1-MMP reporter inactive and WNV protease inh -0.38.
Oc1ccc(N2CCN(C(c3cccnc3)c3nnnn3Cc3ccccc3)CC2)cc1 (stereo not given) was read as Hsc70 ATP site 3.6%, MT1-MMP reporter inactive and WNV protease inh -0.22.
For CN(C)c1ccc(/C=N/N2C(=N)N(c3ccccc3)C(=S)C2=Nc2ccccc2)cc1 the results were Hsc70 ATP site 3.0% and MT1-MMP reporter inactive.
Screening Cc1cc(Nc2ccc(C)c(C)c2)n2nc(C)nc2n1 returned Hsc70 ATP site -4.8%, MT1-MMP reporter inactive and WNV protease inh -0.32.
`O=C(Cn1nnc(-c2ccccc2)n1)NCc1cccs1` gave Hsc70 ATP site -7.5%, MT1-MMP reporter inactive and WNV protease inh 0.58.
`CCOc1ccc(N2C(=O)CC(N3CCN(C(=O)c4ccco4)CC3)C2=O)cc1` (stereo not given) gave Hsc70 ATP site -1.6%, MT1-MMP reporter inactive and WNV protease inh 0.27.
Screening CC(c1ccco1)N(C(=O)Nc1ccc(Cl)cc1)c1ccccn1 (stereo not given) returned Hsc70 ATP site 0.8%, MT1-MMP reporter inactive and WNV protease inh 2.3.
`CC(C)OC(=O)CSc1nnc(-c2ccc(Cl)cc2Cl)o1` gave Hsc70 ATP site -3.7%, MT1-MMP reporter inactive and WNV protease inh -1.6.
CC(=O)c1sc(Nc2nc3ccc(F)cc3s2)nc1C was read as Hsc70 ATP site -2.1%, MT1-MMP reporter inactive and WNV protease inh -1.6.
CCOc1cc(C2NC(=O)NC(c3ccccc3)=C2C(C)=O)ccc1OCC(N)=O (stereo not given) was read as Hsc70 ATP site 0.7% and MT1-MMP reporter inactive.
CCCCCn1c(SCCc2ccccc2)nc2c1c(=O)[nH]c(=O)n2C was read as Hsc70 ATP site -6.0%, MT1-MMP reporter inactive and WNV protease inh -0.41.
`Cc1ccc(-c2noc(CCC(=O)NCc3ccco3)n2)cc1` gave Hsc70 ATP site -3.6% and MT1-MMP reporter inactive.
For CCCCNC(=O)CCC(=O)Nc1ncc(-c2ccc(C)cc2)n1C the results were Hsc70 ATP site 14%, MT1-MMP reporter inactive and WNV protease inh 0.46.
For CC(C)=C1C2C=CC1C1C(=O)N(c3ccc4c(c3)OCO4)C(=O)C21 (stereo not given) the results were Hsc70 ATP site 3.7%, MT1-MMP reporter inactive and WNV protease inh -0.62.
Screening O=S(=O)(NCCc1ccccn1)c1ccc(F)c(F)c1 returned Hsc70 ATP site -2.9%, MT1-MMP reporter inactive and WNV protease inh 1.1.
Screening CCOC(=O)C1=C(C)N(C)C(C)=C(C(=O)OCC)C1c1ccccc1 returned Hsc70 ATP site -0.6% and MT1-MMP reporter inactive.

Of the compounds above, these contain a furan ring, fused or not.
Cc1cccc(NC(=O)c2cc(NC(=O)c3ccco3)ccc2Cl)n1 was read as Hsc70 ATP site 10%, MT1-MMP reporter inactive and WNV protease inh 0.52.
`CCc1ccccc1N(C(=O)CCC(=O)Nc1cc(C)on1)C(C(=O)NC1CCCC1)c1ccco1` (stereo not given) gave Hsc70 ATP site -0.2%, MT1-MMP reporter inactive and WNV protease inh 0.08.
Screening CCc1nc(NCc2ccccn2)c2oc3ccccc3c2n1 returned Hsc70 ATP site -3.3%, MT1-MMP reporter inactive and WNV protease inh -0.18.
For COc1c2ccoc2nc2c(OC)c(OCC(O)C(C)(C)O)ccc12 (stereo not given) the results were Hsc70 ATP site -4.9%, MT1-MMP reporter inactive and WNV protease inh 1.7.
`CCCc1nc2ccc(NC(=O)c3ccco3)cc2c(=O)n1Cc1ccccc1Cl` gave Hsc70 ATP site 3.6% and MT1-MMP reporter inactive.
`CCOc1ccc(N2C(=O)CC(N3CCN(C(=O)c4ccco4)CC3)C2=O)cc1` (stereo not given) gave Hsc70 ATP site -1.6%, MT1-MMP reporter inactive and WNV protease inh 0.27.
Screening CC(c1ccco1)N(C(=O)Nc1ccc(Cl)cc1)c1ccccn1 (stereo not given) returned Hsc70 ATP site 0.8%, MT1-MMP reporter inactive and WNV protease inh 2.3.
`Cc1ccc(-c2noc(CCC(=O)NCc3ccco3)n2)cc1` gave Hsc70 ATP site -3.6% and MT1-MMP reporter inactive.

Screening results deposited in PubChem BioAssay by several laboratories.
